# VACV mCherry inh = qHTS for Stage-Specific Inhibitors of Vaccinia Orthopoxvirus: mCherry Reporter Primary qHTS; Vaccinia virus mCherry reporter infection, fluorescence; about a quarter of the inactives have no number; Potency, µM (series often up to 36.5 µM), for the others: at the top dose activity change, negative = inhibition, actives largely listed as inhibitors; 0.63% of 310,000 active; AID 720579, 2013; active = well fitted inhibition curve with a large enough effect; inconclusive = small, poorly fitted or top-dose-only effect; inactive = no such curve, though single readings can be large or run the other way; tested in A549 cells; further: nearly all actives have a fitted effect of over 35% in size; inactives centre near -10
# VACV Venus inh = qHTS for Stage-Specific Inhibitors of Vaccinia Orthopoxvirus: Venus Reporter Primary qHTS; Vaccinia virus Venus reporter expression, fluorescence; Potency, µM (doses to about 36.5 µM), inactives show at the highest dose activity change, negative = inhibition, actives largely listed as inhibitors; 0.46% of 330,000 active; active means well fitted inhibition curve with a large enough effect; inconclusive means small, poorly fitted or top-dose-only effect; inactive means no such curve, though single readings can be large or run the other way; tested in A549 cells; further: nearly all actives have a fitted effect of over 30% in size; inactives centre near -10
# * hit, by the source's call; i = inactive; ? = inconclusive; . = not tested or not shown; & = joins results of further samples; [ ] = another dose, or the depositor's remark. On the % scale 0 is the no-effect control and ±100 the full control effect; potency means the concentration at half of the fitted maximal effect.
SMILES,VACV mCherry inh,VACV Venus inh
CNc1nc2c(C)cccn2c(=O)c1C=Nc1ccc(OC)cc1,?,-17%
COc1ccc(-n2cc(-c3ccccc3)c3c(Nc4ccc(OC)c(OC)c4)ncnc32)cc1,?,?
O=C(Nc1nc2c(F)cccc2s1)c1ccc(S(=O)(=O)N2CCOCC2)cc1,3%,-11%
CC(C)c1ccc(/C=C(\NC(=O)c2ccccc2)C(=O)NCCCN2CCOCC2)cc1,-15%,-14%
COc1ccc(CCNC(=O)CSc2nnc(CNC(=O)c3ccccc3F)o2)cc1OC,i,-18%
CCOC(=O)Cc1csc(SCC(=O)N2CCN(c3ccccc3)CC2)n1,-15%,-7%
COCc1cccc(-c2csc(C(O)c3ccc(F)cc3)n2)c1 (stereo not drawn),i,-14%
COCCN1C(=O)C(=O)/C(=C(/O)c2ccc(S(=O)(=O)N3CCCCC3)cc2)C1c1ccc(OC)cc1 (stereo not drawn),0%[7.34 µM],0%[7.34 µM]
COC(=O)[C@H](C)NS(=O)(=O)C1CC1,i,-14%
COc1ccc(Nc2cc(C(=O)NCc3ccccc3)c3ccccc3n2)c(OC)c1,-6%,-8%
CCCn1c(N2CCN(CC(=O)c3c[nH]c4ccccc34)CC2)nc2c1c(=O)[nH]c(=O)n2C,?,?
CC(=O)Nc1cccc(NC(=O)CSc2nnc3ccc(-c4ccccn4)nn23)c1,i,-13%
Cc1ccc(CSc2c(C)cnc3c2c(=O)n(C)c(=O)n3C)cc1,-3%,-6%
Cc1ccc(S(=O)(=O)NCCC(c2ccc(F)cc2)c2ccco2)cc1 (stereo not drawn),-11%,-24%
CCCCS(=O)(=O)NC1=NCN(CCOC(=O)c2ccccc2)CN1,.,-9%
COc1ccc(NC(=O)C2(C)Cc3c(-c4ccc(C(N)=O)cc4)ccnc3O2)cc1 (stereo not drawn),i,20%
C=CCc1cccc2cc(C(=O)NC(C)(C)C)c(=O)oc12,-12%,-10%
CCOC(=O)C1=C(C)N(CCCC(=O)O)C(=O)NC1c1cccc(OC)c1 (stereo not drawn),i,-4%
CCOc1ccc(C2N(c3ccc(Cl)cc3)C(=O)C3CCCN32)cc1OC (stereo not drawn),-6%,-5%
CC1CCN(C(=O)CCC(=O)Nc2ccc([N+](=O)[O-])cc2)CC1,-12%,-8%
COc1ccc(CNC(=O)c2ccc3c(c2)N(Cc2ccccc2)C(=O)c2ccccc2S3(=O)=O)cc1,-10%,-8%
Cc1ccc(C(=O)CC2(O)C(=O)N(CN3CCOCC3)c3ccccc32)cc1 (stereo not drawn),.,3%
Cc1c(C(=O)N2CCN(Cc3ccccc3)CC2)oc2c1C(=O)CC(C)(C)C2,-1%,-6%
Cc1ccc(NNC(=O)c2snnc2C)cc1Cl,i[7.34 µM],-2%[7.34 µM]
O=C(O)c1cccc(S(=O)(=O)Nc2ccc(-c3ccccc3)cc2)c1,-2%,-10%

# Ordered by length of the SMILES (ascending): three of the compounds above
SMILES,VACV mCherry inh,VACV Venus inh
COC(=O)[C@H](C)NS(=O)(=O)C1CC1,i,-14%
Cc1ccc(CSc2c(C)cnc3c2c(=O)n(C)c(=O)n3C)cc1,-3%,-6%
Cc1ccc(C(=O)CC2(O)C(=O)N(CN3CCOCC3)c3ccccc32)cc1 (stereo not drawn),.,3%

# The list continues:
SMILES,VACV mCherry inh,VACV Venus inh
Cc1cccc(-n2c(C)cc(C(=O)C(=O)Nc3ccccc3F)c2C)c1C,-8%,-6%
COc1ccc(CCc2nc(-c3ccc(-n4cccc4)cc3)no2)cc1,-4%,-14%
CC(C)NC(=O)CSc1nc2ccccc2c(=O)n1CCCOC(C)C,-14%,-3%
CCN(CC(=O)Nc1ccc2c(c1)OCCO2)C(=O)CC1CCCC1,-10%,-5%
O=C(CC(=O)Nc1ccccc1F)Nc1ccc2nc3n(c(=O)c2c1)CCCCC3,-3%,6%
COc1cccc(OCC(=O)O/N=C(\N)c2ccc(OC)c(OC)c2)c1,-1%,-21%
COc1ccc(Nc2ncnc3c2oc2ccccc23)cc1,.,-11%
Cc1ccc(NC(=S)N/N=C/c2ccc(OCCC(C)C)cc2)c(C)c1,-18%,-7%
COc1ccc(N2CCN(CCCN)CC2)cc1,-8%,6%
CCOC(=O)c1c(NC(=O)c2cc(=O)c3cc(C)ccc3o2)sc2c1CCCC2,-10%,10%
CC(C)(C)c1ccc(CC(=O)N2CCC2(C)C(=O)NCc2ccc(Cl)cc2)cc1 (stereo not drawn),13%,-28%
FC(F)C(F)(F)Oc1cccc(Nc2nccn3c(-c4cc(C(F)(F)F)cc(C(F)(F)F)c4)cnc23)c1,-3%,-4%
COc1ccc(-n2nnnc2C(c2cccc3ccccc23)N2CCC3(CC2)C(=O)NCN3c2ccccc2)cc1 (stereo not drawn),3%,-23%
O=C(OCc1c(F)cccc1Cl)c1cnccn1,-5%,-3%
COc1ccccc1N(C)S(=O)(=O)c1ccc(C(=O)NCCCN2CCCC2=O)cc1,i,-9%
CC(=O)O[C@@]12CO[C@@H]1C[C@@H](O)[C@@]1(C)C(=O)[C@H](O)C3=C(C)[C@@H](OC(=O)[C@H](O)[C@@H](NC(=O)c4ccccc4)c4ccccc4)C[C@@](O)([C@@H](OC(=O)c4ccccc4)C12)C3(C)C (stereo partly drawn),?,-21%
CCC(C(=O)Nc1ccc(C(C)C)cc1)c1ccccc1 (stereo not drawn),?,3%
O=C(c1ccc(CS(=O)(=O)c2c(Cl)cccc2Cl)o1)N1CCN(c2ccccn2)CC1,i,-11%
COc1ccc(C)cc1S(=O)(=O)N(C)CC(=O)N1CCC(C(N)=O)CC1,-8%,-11%
COc1ccccc1C(NC(C)=O)c1c(O)ccc2ccc(O)cc12 (stereo not drawn),?,-3%[7.34 µM]
COc1ccc(-c2csc3ncnc(Nc4ccc(OC)cc4OC)c23)cc1,-16%,-1%
CCCNC(=O)c1onc(CSc2ccc(Cl)cc2)c1C(=O)NCCOC,i,-9%
COc1ccc(C)cc1NC(=O)c1cnc2ccc(C)cn2c1=O,-9%,-6%
O=C(c1cc2c(s1)-c1ccccc1OC2)N1CCCC1,-19%,-12%
CCOc1ccc(N(CC(=O)Nc2ccccc2C(=O)NC(C)CC)S(C)(=O)=O)cc1 (stereo not drawn),-22%,-26%

# Further entries:
SMILES,VACV mCherry inh,VACV Venus inh
COc1ccc(Cl)cc1-c1nc(-c2ccc(NC(=O)c3ccncc3)cc2)no1,-7%,5%
CCOc1cc(C=O)ccc1OCC(=O)N1CCCC1,0%,-10%
COC(=O)c1ccc(C(=O)OC)c(NC(=S)N2CCN(c3cccc(Cl)c3)CC2)c1,-24%,-16%
O=C(Cc1ccccc1)Nc1ccc2c(c1)OC1(CCCC1)O2,-23%,-9%
COC12c3ccccc3-c3ccccc3C1C(C(=O)O)C2C(=O)O (stereo not drawn),43%[activator],4%
Cc1ccc(NCC(=O)Nc2ccc(F)c(Cl)c2)cc1S(=O)(=O)N1CCOCC1,-13%,?
CCCn1c(SCC(=O)N2CCN(CC)CC2)nc2c1c(=O)n(C)c(=O)n2C,-11%,0%
CC(Nc1ncnc2c1cnn2-c1cccc(Cl)c1)c1ccccc1 (stereo not drawn),-23%,-22%
CCN(CC(=O)Nc1ccc(C)c(F)c1)CC(=O)NC(C)(C)C,i,-12%
O=C(NCC1COCCO1)c1cc(COc2ccc(F)cc2F)on1 (stereo not drawn),-15%,-2%
COc1ccc(OC)c(/C(O)=C/C(=O)C(=O)Nc2cc(C)cc(C)c2)c1,-13%,-3%
Cc1cccc(NC(=S)NCC(c2cccnc2)N2CCOCC2)c1 (stereo not drawn),i,-9%
COc1ccc2c(C)c(Cl)c(=O)oc2c1,-9%,-3%
CCN(CC)S(=O)(=O)c1ccc(/C=C/C(=O)OCC(=O)N(C)C)cc1,-16%,-13%
Cc1ccc2nc(-c3ccc(NC(=S)NCCC(C)C)cc3)sc2c1,-5%,-3%
CCOC(=O)C1CCN(C(=O)CN2c3ccc(CC)cc3-c3ccccc3S2(=O)=O)CC1,-13%,-14%
O=C1c2ccccc2C(=O)c2c(Nc3ccc(CCO)cc3)ccc(O)c21,-12%,-17%
CC(=O)Nc1ccc(NC2=CC(=O)c3ccccc3C2=O)cc1,-21%,-4%
COc1ccc(S(=O)(=O)Nc2cccc(SC)c2)cc1C(=O)N1CCOCC1,-9%,-7%
Cn1c(Cn2c(=O)sc3ccccc32)nnc1SCC(=O)NCc1ccccc1,-1%,-2%
CCc1ccc(C2CC(=O)c3c([nH]c(C(=O)OC4CCC(C)CC4)c3C)C2)cc1 (stereo not drawn),-12%,-18%
O=C(/C=C\c1ccc2c(c1)OCO2)NC1CC(=O)N(c2ccc(Cl)cc2)C1 (stereo not drawn),-7%,-8%
O=C(NCC1CCCO1)C1CCCN1C(=O)NC1CCCCC1 (stereo not drawn),i,-2%
Cc1cc(C)c2nc(SCCc3ccccc3)nc(C)c2c1,.,?
CCCc1cc(=O)[nH]c(SCC(=O)Nc2sc3c(c2C#N)CCCC3)n1,i,-8%

# Later entries.
SMILES,VACV mCherry inh,VACV Venus inh
Cc1ccc(C(O)c2ncc(-c3ccccc3F)[nH]2)cc1F (stereo not drawn),5%,-7%
COc1ccc(N2CCN(C(=O)C3CCCN(S(=O)(=O)c4ccc5c(c4)oc(=O)n5C)C3)CC2)cc1 (stereo not drawn),-14%&-9%,-8%&-9%
O=C(CSc1ncccn1)NC(=O)NC1CCCC1,i,-5%
COc1ccc(/C=C(/NC(=O)c2cccs2)C(=O)Nc2ccc(C)cc2)cc1OC,0%,-13%
CN1Cc2ccccc2CC1CNCc1c(C(=O)N2CCCC2)nc2ccccn12 (stereo not drawn),0%,-13%
O=C(NC1CC1)C1=C[C@@H](C2CC2)C[C@@H](OCCCCO)O1,-12%,5%
O=C(NCCN1CCN(C(=O)C(c2ccccc2)c2ccccc2)CC1)C(=O)Nc1ccccc1,?,-27%
CC(C)c1ccc(-n2c(O)c(/C=N/NC(=O)c3ccncc3)c(=O)[nH]c2=O)cc1,-2%,-9%
CN(C)CCCn1c(N)c(C#N)c2nc(C#N)c(C#N)nc21,.,-18%
CCCNC(=O)c1cccc(S(=O)(=O)N2CC3(C)CC2CC(C)(C)C3)c1 (stereo not drawn),6%,-7%
CCc1ccc(C2CC(c3cccc(Cl)c3)n3nc(N)nc3N2)cc1 (stereo not drawn),-25%,-11%
c1ccc(-c2nc3ccccc3[nH]2)nc1,-9%,3%
CC(C)CN(CCCNC(=O)CN1N=C(c2ccccc2)CCC1=O)CC(C)C,-5%,-8%
C[C@@H]1CN([C@@H](C)CO)C(=O)Cc2cc(NC(=O)Nc3cccc4ccccc34)ccc2O[C@@H]1CN(C)S(C)(=O)=O,-4%,2%
O=C(CSc1nnc(CNC(=O)c2cccs2)o1)Nc1cccc(Cl)c1,i,-9%
O=C(NCc1n[nH]c(=S)n1-c1ccc(Cl)c(Cl)c1)c1cccs1,-12%,6%
O=C1NC[C@H](CCCCN2C[C@H](Cc3ccc(O)cc3)N(CCc3ccccc3)C(=O)C2=O)N(Cc2ccccc2)C1=O,-22%,-18%
CC1SC(C)C(=O)N(CC(=O)Nc2ccc([N+](=O)[O-])cc2)C1=O (stereo not drawn),-3%,-6%
Clc1ccc(C2CC3CCC2N3)cn1 (stereo not drawn),0%[87.9 µM],-8%
O=C1NC(=O)C2(Br)Nc3ccc(Br)cc3C(=O)C2N1 (stereo not drawn),-10%,-8%
Brc1c(CSc2nnc(-c3ccco3)o2)nc2ccccn12,?,-28%
O=C(O)C1(S(=O)(=O)c2ccc(Cl)cc2)CCC1,i,-6%
COC(=O)[C@]12CCCCC=C1N(CCC1=CCCCC1)C(=O)[C@H](CC(=O)N1CCSCC1)C2,-3%,2%
CCOC(=O)C1CCCN(C(=O)Cc2c(F)cccc2Cl)C1 (stereo not drawn),-3%,1%

# Of the compounds above, these contain fluorine.
SMILES,VACV mCherry inh,VACV Venus inh
O=C(Nc1nc2c(F)cccc2s1)c1ccc(S(=O)(=O)N2CCOCC2)cc1,3%,-11%
COc1ccc(CCNC(=O)CSc2nnc(CNC(=O)c3ccccc3F)o2)cc1OC,i,-18%
COCc1cccc(-c2csc(C(O)c3ccc(F)cc3)n2)c1 (stereo not drawn),i,-14%
Cc1ccc(S(=O)(=O)NCCC(c2ccc(F)cc2)c2ccco2)cc1 (stereo not drawn),-11%,-24%
Cc1cccc(-n2c(C)cc(C(=O)C(=O)Nc3ccccc3F)c2C)c1C,-8%,-6%
O=C(CC(=O)Nc1ccccc1F)Nc1ccc2nc3n(c(=O)c2c1)CCCCC3,-3%,6%
FC(F)C(F)(F)Oc1cccc(Nc2nccn3c(-c4cc(C(F)(F)F)cc(C(F)(F)F)c4)cnc23)c1,-3%,-4%
O=C(OCc1c(F)cccc1Cl)c1cnccn1,-5%,-3%
Cc1ccc(NCC(=O)Nc2ccc(F)c(Cl)c2)cc1S(=O)(=O)N1CCOCC1,-13%,?
CCN(CC(=O)Nc1ccc(C)c(F)c1)CC(=O)NC(C)(C)C,i,-12%
O=C(NCC1COCCO1)c1cc(COc2ccc(F)cc2F)on1 (stereo not drawn),-15%,-2%
Cc1ccc(C(O)c2ncc(-c3ccccc3F)[nH]2)cc1F (stereo not drawn),5%,-7%
CCOC(=O)C1CCCN(C(=O)Cc2c(F)cccc2Cl)C1 (stereo not drawn),-3%,1%

# Screening data as filed in PubChem BioAssay.
